S aureus helic: S. aureus DNA helicase inhibition; hit rate 0.05% among 120,000; purified S. aureus helicase, fluorescence unwinding assay; about half of the hits fall short of the stated cut; inhibition, %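 (tested at about 80 µM)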;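 active means both duplicates at 50% or more, or one of them with a favoured structure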;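 further: 0% = mean of negative control wells and 100% = mean of positive control wells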
MgrA DNA FP: modulators of Staphylococcus aureus MgrA DNA binding; AID 602314; fluorescence polarization; hit rate 0.13% among 84,000; inhibition, %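 (about 10 µg/mL by stock and volumes)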;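 active means above 50% in either of two replicates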;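 further: 0% = protein plus DNA without compound and 100% = DNA alone without protein; higher means less MgrA bound to DNA so lower polarization; one replicate is shown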
Active calls of the source: *; . = no result given; & = joins results of further samples.

S aureus helic	MgrA DNA FP	SMILES
67*	.	Cn1c(SCc2cc(=O)oc3cc(O)c(O)cc23)nc2ccccc21
.	0.3	CN(c1ccc([N+](=O)[O-])cc1Cl)C1CCCCC1
.	3.8	CCOC(=O)CC1=NC(=O)CS1
.	1.1	CCCCOC(=O)c1ccc(NCN2C(=O)S/C(=C/c3ccc(C(=O)OC)cc3)C2=O)cc1
3	6.0	COc1ccc(/C=C/C=C2/SC(=O)N(CC(=O)N3CCCC3)C2=O)cc1
-8	.	CCC(C)NC(=O)C1CC(c2ccccc2F)=NO1 (stereo unspecified)
3	30	CC(N=Cc1cccc(O)c1O)c1ccccc1 (stereo unspecified)
.	-1.2	CCc1ccc(NC(=S)Nc2ccccc2C(C)C)cc1
-1	.	O=C1NC2(CCCC2)C(=O)N1CCSc1ccccc1F
9	1.8	N#C/C(=C\Nc1ccc(C(N)=O)cc1)c1nc(-c2ccccc2)cs1
12	.	CN(Cc1ccccc1)C(=O)CN1C(=O)c2cccnc2Oc2ccc(Cl)cc21
-1	-3.6	Cn1cc(CNC(=S)NCc2ccc(Cl)cc2)cn1
-10	.	NCC(O)COc1ccc2c(c1)OCO2 (stereo unspecified)
.	1.2	COC(=O)c1ccccc1CSc1ccccc1C(=O)O
-8	0.7	CCOc1cc(CN2CCN(CC3CC4C=CC3C4)CC2)ccc1OC (stereo unspecified)
15	-2.3	Cc1cccc(C(=O)N2CC(C)CC(C)C2)c1 (stereo unspecified)
-8	.	CNC(=S)N/N=C(\C)c1ccc2c(c1)OCCO2
.	-0.6	CN(C)/C=N/c1c(-c2nc(-c3ccc(Cl)cc3)cs2)cnn1C
-24	.	COc1ccc(N2C(=O)CC(N3CCN(C(c4ccc(F)cc4)c4ccc(F)cc4)CC3)C2=O)cc1 (stereo unspecified)
.	-0.3	COc1nc(N)nc(OC)n1
17	.	COC(=O)C1CN(C(=O)c2cccc(OC)c2)c2ccccc2O1 (stereo unspecified)
-21	2.8	COc1ccc(C2=Nc3ccccc3N=C(c3ccc4ccccc4c3O)C2)cc1
-13	.	COc1cc(OC)cc(C(=O)N(c2ccccn2)c2ccccn2)c1
.	1.9	CCN(CC)c1ccc(N=Cc2ccccc2O)cc1
11	1.7	Cc1oc2ccccc2c1-c1csc(-c2ccccc2)n1

The closing 2 records of the section above lead into the next:
S aureus helic	MgrA DNA FP	SMILES
.	1.9	CCN(CC)c1ccc(N=Cc2ccccc2O)cc1
11	1.7	Cc1oc2ccccc2c1-c1csc(-c2ccccc2)n1
-24	.	CC(C(=O)NCC1CCCO1)n1c2ccccc2c2cnn(C)c(=O)c21 (stereo unspecified)
8	.	O=C(Nc1ccc(N2CCCCS2(=O)=O)cc1)c1ccccc1
0	-6.0	Cn1c(CN2CCOCC2)nc2cc(N)ccc21
-2	-1.2	CC(CN1CCCCC1)OC(=O)c1ccc2c(c1)OCO2 (stereo unspecified)
-5	-4.0	Cc1cc(C)n(CCC(=O)N2CCN(S(=O)(=O)c3ccccc3)CC2)n1
15	.	O=C1CN(C(=O)Cn2cc(C(F)(F)F)ccc2=O)c2ccccc2N1
.	14	CCc1ccc(N2C(=O)/C(=C/c3ccc(OCC(=O)OC)c(OC)c3)C(=O)NC2=S)cc1
.	0.5	CCCc1cnc(N2CCN(S(C)(=O)=O)CC2)nc1
-2	0.8	OC1CCCN(Cc2cccc3ccccc23)C1 (stereo unspecified)
.	0.3	N#Cc1ccc(NC(=O)Nc2ccccc2)cc1
4	.	O=C(COC(=O)c1cccnc1Cl)c1ccccc1
7	-1.9	Cc1ccc(NC(=O)C2CC(=O)N(C(C)C)C2)cc1 (stereo unspecified)
-8	.	O=c1c(=NO)c(=O)c2ccccc12
.	-2.1	N#Cc1ccc(OCc2ccc(Cl)cc2)cc1
.	-0.1	O=[N+]([O-])c1cnc2ccccn12
4	0.7	CC(C)c1ccc(NC(=O)c2ccc3snnc3c2)cc1
-15	0.9	CC(C)OC(=O)COc1ccc2c(c1)OC1(CC2c2ccccc2)CC(C)(C)NC(=O)N1 (stereo unspecified)
2	.	COc1cc(/C=N/N2C(=O)c3ccccc3C2=O)ccc1OCC(=O)N1CCOCC1
7	.	CC(C(=O)O)n1cnc2scc(-c3ccc(Br)cc3)c2c1=O (stereo unspecified)
10	5.5	O=C(c1ccccc1)n1nnc2ccccc21
-62	0.0	CN1/C(=C/C(=O)CC(N)=O)C(C)(C)c2ccccc21
3	2.7	O=C(Cn1c2ccccc2c2cn[nH]c(=O)c21)NCc1cccnc1
-14	-2.5	O=C1CCCC(=NCc2ccco2)C1
4	0.2	COc1ccc(CC(=O)NCC2OCCc3ccccc32)cc1OC (stereo unspecified)
.	-2.4	CCOC(=O)c1cc(NC(=O)Nc2ccc(C)c(Cl)c2)ccc1N1CCCCC1

3 entries already listed, ordered by the value under MgrA DNA FP, smallest number first.
S aureus helic	MgrA DNA FP	SMILES
0	-6.0	Cn1c(CN2CCOCC2)nc2cc(N)ccc21
-62	0.0	CN1/C(=C/C(=O)CC(N)=O)C(C)(C)c2ccccc21
3	2.7	O=C(Cn1c2ccccc2c2cn[nH]c(=O)c21)NCc1cccnc1

(more compounds)
S aureus helic	MgrA DNA FP	SMILES
.	-0.6	O=C1Nc2ccccc2/C1=C\c1ccc(Cl)cc1
.	-2.2	CCN(CCS(=O)(=O)c1ccc(C)cc1)C(=O)c1ccc(-c2cc(C(F)(F)F)nn2C)s1
-3	-1.9	O=C(O)c1cc2cc(Cl)ccc2o1
13	-1.2	NC(=O)CN1C(=O)CCSc2ccccc21
6	3.9	CSc1nnc(COc2ccc(Cl)cc2)n1C
.	1.8	CCOc1ccc(NC(C(=O)O)c2ccccc2)cc1 (stereo unspecified)
-3	.	O=C(C1CCC1)N1CCc2cc(S(=O)(=O)NCCN3CCOCC3)ccc21
-6	.	O=C(CCn1c(=O)oc2ccccc21)Nc1nccs1
11	.	CC(O)c1nc2ccccc2n1Cc1cccc2ccccc12 (stereo unspecified)
5	-2.9	Cc1nc(C)c(C(=O)O)o1
-4	.	CCN1c2ccccc2C(=O)CS1(=O)=O
.	-4.0	Cc1ccc(NC(=O)CSc2ccc(C(F)(F)F)cn2)cc1C#N
22	.	CCN1CCCC1CNC(=O)c1ccc2c(c1)N(Cc1ccccc1)C(=O)c1ccccc1S2(=O)=O (stereo unspecified)
-8	-2.1	CCN1CCN(C(=O)/C=C/c2ccc(OC)c(OC)c2)CC1
.	3.9	O=C(O)CCc1c(C(=O)O)[nH]c2cc(Cl)cc(Cl)c12
4	.	CC1S/C(=C\c2nc3ccccc3s2)NC1=O (stereo unspecified)
-9	.	Nc1c(C(=O)c2ccc(Cl)s2)sc2c1c(=O)[nH]c(=O)n2Cc1cccs1
.	-1.4	COc1cc(C2C(C#N)=C(N)OC3=C2C(=O)CC(C)(C)C3)ccc1OCC(N)=O (stereo unspecified)
12	0.5	O=C(Cn1nc(Cc2cccnc2)c2ccccc2c1=O)N1CCCC1
-8	.	Cc1nc2[nH]n(-c3ccccc3)c(=O)c2c(C)c1CCC(=O)Nc1ccccc1
7	-7.1	O=C(CSc1cccc(-c2ccccc2)n1)c1cccs1
.	3.6	CC1(C)CC(=O)c2c(S(C)(=O)=O)sc(C#N)c2C1
-2	1.2	Cc1cc(C)n(C(=O)NC2CCCCC2)n1
-5	1.2	O=C(c1ccc2sc(=S)[nH]c2c1)N1CCCC1
7	.	COc1cccc(/C=N/c2nnc(C)s2)c1O

Some of the entries so far, as labelled records:
canonical_smiles: CCOc1ccc(NC(C(=O)O)c2ccccc2)cc1 (stereo unspecified)
  S aureus helic: . | MgrA DNA FP: 1.8
canonical_smiles: O=C(CCn1c(=O)oc2ccccc21)Nc1nccs1
  S aureus helic: -6 | MgrA DNA FP: .

Other entries.
S aureus helic	MgrA DNA FP	SMILES
19	.	COc1ccc(CC2S/C(=N/c3ccccn3)NC2=O)cc1 (stereo unspecified)
-11	.	CC(C#N)Sc1nnc2ccccn12 (stereo unspecified)
14	-0.2	Cc1ccccc1-c1nn[nH]n1
-3	.	Cc1ccc2[nH]c(O)c(N=NC(=O)Cc3cn4ccsc4n3)c2c1
4	0.9	COc1ccc(CCNC2CC(=O)N(C3CCCCC3)C2=O)cc1OC (stereo unspecified)
10	.	Cc1ccc(-n2ccnc2SCC(=O)NC(=O)C2COc3ccccc3O2)c(C)c1 (stereo unspecified)
11	-1.6	Oc1c(/C=C2\C=Nc3ccccc32)sc(=Nc2ccccc2)n1C1CCCC1
.	0.0	CCOC(=O)c1c(Nc2ccccc2)sc([N+](=O)[O-])c1N
.	-0.6	O=C1CSC(CS(=O)(=O)Cc2cccc(C(F)(F)F)c2)=N1
-20	.	O=c1cc(CO)oc(CN2CCOCC2)c1O
-24	.	CCOc1ccc(C(=O)NCCn2ccc3ccccc32)cc1
14	.	CC(CC(=O)NC1CCCC1)CC1=NS(=O)(=O)c2ccccc2N1 (stereo unspecified)
-24	.	CC(C)Oc1ccc(CNC(=O)C2CCCN(S(=O)(=O)N(C)C3CCCCC3)C2)cc1 (stereo unspecified)
-14	.	CC(=O)SC1CC(=O)N(c2ccc(C(F)(F)F)cc2)C1=O (stereo unspecified)
10	.	Cc1c(C)n(CC(O)CNC(C)(C)C)c2ccccc12 (stereo unspecified)
-12	.	Cc1oc2nc(SCC(=O)N3CCCCC3)nc(N)c2c1C
-1	.	NS(=O)(=O)c1ccc(CCNC(=O)CSc2ccc3c(c2)OCCO3)cc1
1	-2.2	COCCn1c(SCc2ccncc2)nc2ccccc2c1=O
.	-0.6	O=C(O)c1sccc1Br
-3	.	COc1ccccc1CNC(=O)CSC1=NCCS1
15	-3.2	CNC(=S)NCCCN1CCN(c2ccc(F)c(Cl)c2)CC1
.	-0.5	CC1(C)S[C@@H]2[C@H](NC(=O)[C@@H](N)c3ccc(O)cc3)C(=O)N2[C@H]1C(=O)O
2	0.2	Oc1ccccc1-c1cc(-c2ccccc2O)nc(-c2ccccc2)n1
4	.	O=C1CCCN1CCCNc1nc(-c2ccccc2)no1
6	.	Cc1cc(C)c2c(-n3cccc3)c(C(=O)O)sc2n1
-7	.	CC(C)CCC1(C)NC(=O)N(CC(=O)c2ccc[nH]2)C1=O (stereo unspecified)
-13	.	Cc1ccccc1C1C(C#N)=C(SCc2ccccc2)NC(=O)C1C#N (stereo unspecified)
18	4.8	Cc1sc(-n2cccc2)c(C(=O)O)c1C
-2	1.9	CN(C)c1ccc(N/C=C(\C#N)c2nc3ccccc3[nH]2)cc1
-4	1.4	CC(C)(C)C(=O)Nc1cc(C(F)(F)F)ccc1-n1ccnc1
10	.	Cc1cc(C(F)(F)F)c2c(C)nn(CCc3nn[nH]n3)c2n1
-1	-0.2	CS(=O)(=O)N(CCC(=O)O)Cc1ccccc1
2	1.9	CC(C)(C)c1cc(C(=O)NCc2ccco2)ccn1
2	.	Cc1ccccc1N(C(=O)CCc1c(C)noc1C)c1nc2ccccc2s1
-21	.	Nn1cnc2ccccc2c1=O
6	.	Cc1noc(C)c1CCC(=O)Nc1ccc(Br)cc1Cl
9	-2.0	Cc1ccc(NC(=O)C2(c3ccccc3)CCCC2)nc1
8	-0.6	O=C1c2ccccc2C(=O)N1CCC1=NCCc2ccccc21
-2	.	CC(=O)N1CCN(C(=O)c2nn(Cc3ccccc3)c(=O)c3ccccc23)CC1
11	-2.5	CCCCC(CC)CSc1nc2ncccc2[nH]1 (stereo unspecified)
19	.	CCc1ccc(NC(=O)CN(c2ccc(C)cc2)S(=O)(=O)c2cccc3nonc23)cc1
-7	1.9	CCCCCC1CC(CC(=O)Nc2nncs2)C(=O)O1 (stereo unspecified)
-2	.	CCOC(=O)Cc1csc2nc3sc4c(c3c(=O)n12)CCCC4
-4	.	C/C(N)=C(/C#N)C(=O)CSc1nc(C)cs1
3	.	Cc1noc(C)c1CSc1ncccc1C(=O)Nc1ccc2c(c1)OCCO2
7	2.3	NNC(=O)c1ccc2c(=O)[nH][nH]c(=O)c2c1
16	1.6	N#Cc1cc2c(nc1SCC(=O)Nc1ccc(F)cc1)CCCC2=O
7	.	O=c1ccnc(SCc2cn3ccccc3n2)[nH]1
-2	.	C#CCn1nnc(-c2cc(C(F)(F)F)cc(C(F)(F)F)c2)n1
12&-15	.	Cc1ccc(S(=O)(=O)NCCSc2ncccn2)cc1

2 of the compounds above, as labelled records.
N#Cc1cc2c(nc1SCC(=O)Nc1ccc(F)cc1)CCCC2=O
  S aureus helic = 16	MgrA DNA FP = 1.6

O=c1ccnc(SCc2cn3ccccc3n2)[nH]1
  S aureus helic = 7	MgrA DNA FP = .

(listing goes on)
S aureus helic	MgrA DNA FP	SMILES
-12	0.9	Cc1nc(C(N)=O)c(N)n1CCO
8	-1.2	Cc1ccc2c(c1)NC(C(F)(F)F)(C(F)(F)F)NC2=O
14	.	CCOc1ccc(OCC)c(NC(=O)C2(S(=O)(=O)c3ccc(Cl)cc3)CC2)c1
2	-1.1	Cc1nccc2[nH]c(=O)c(C(=O)NC(C)CCc3ccccc3)cc12 (stereo unspecified)
6	.	Cc1cccc2c1-c1sc(C(=O)N(CCN(C)C)Cc3ccco3)cc1CO2
.	-2.5	N#CCc1ccc(NC(=O)CCCC(=O)O)cc1
-3	.	CCCn1c(=O)n(C)c(=O)c2c(SCC(=O)NCC3CCCO3)nc(C(C)(C)C)nc21 (stereo unspecified)
5	0.8	Cc1ccccc1NC(=O)CC(C(=O)O)N(C)C (stereo unspecified)
8	.	C=CCSc1nc2c(c(=O)[nH]1)C(c1ccccc1)C1=C(CCCC1=O)N2 (stereo unspecified)
9	.	COc1ccc(C(NC(=O)c2ccccc2)c2ccc3cccnc3c2O)cc1 (stereo unspecified)

High-throughput results: PubChem, ICCB-Longwood Screening Facility, Harvard Medical School

An excerpt (hit frequency here may not be typical).
